PrP 5UTR inh – inhibition of PrP 5' UTR reporter expression; cell-based PrP 5' UTR mRNA reporter, plate reader; 340,000 tested, 0.35% active; inhibition, % (concentration not given with the values);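 active means every replicate at 50% or more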;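 further: 0 = median of the neutral control wells; tested in H4 reporter cells; numbers are from one replicate; inactives centre near -14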
BJeLR lethal – MLPCN primary cell-based screen for lethality selective to Ras in HRASV12 cells. 300,000 tested, 0.17% active. BJeLR (HRASV12) viability, CellTiter-Glo ATP luminescence, 48 h; reference of the scale not given here. inhibition, % (concentration not given with the values);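 active means replicate mean above 50%; inconclusive means above 50% but judged a plate artefact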;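 further: 50 nL library stock added to about 25 µL; numbers are from one replicate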
Mtb hypoxia rep – PubChem AID 1159583 | M. tuberculosis hypoxia-regulated fluorescent reporter, fluorescence | fluorescence inhibition, % (test concentration not listed) | 300,000 tested, 0.1% active;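 active means 35 to 45% if threefold the growth effect, above 45% if 1.5-fold the growth effect; inactive means the rest, general growth blockers included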;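 further: wells of about 50 µL received 100 nL stock; 0% = vehicle wells and 100% = reference inhibitor wells; whole bacteria with a GFP reporter of the hypoxia response; strong numbers were not always called active; many hits fall short of the cut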
Sa RN4220 lethal – growth inhibition of S. aureus RN4220, primary screen, OD600 | inhibition, % (no concentration beside the values) | 16 h | 330,000 tested, 0.33% active;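 active means z-score of -3 or lower and OD600 up to 0.18 on both plates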;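 further: plate controls were untreated cells for no effect and reference antibiotic for full effect; stock transfer was 100 nL into about 80 µL; one replicate is shown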
Autofluor counter – flagged as autofluorescent in microsphere protease counterscreen; compound autofluorescence counterscreen, microsphere flow cytometry; stronger effect = higher value; fluorescence intensity (test concentration not listed); AID 624483; 360,000 tested, 3.1% active;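 active means at least 3 SD above the mean of all compounds, about 16000 in these data; inconclusive means too few beads counted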;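 further: 100 nL of 1 mM stock went into each well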
Sa ugtP lethal – growth inhibition of ugtP-null S. aureus, primary screen, RN4220 ugtP deletion, OD600; 16 h; some inactives read as strong as hits; growth inhibition, % (test concentration not listed); 330,000 tested, 0.54% active; AID 1259309, 2017;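 active means z-score under -3 and OD600 up to 0.15 on both plates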;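 further: plate controls were untreated wells for no effect and antibiotic for full effect; wells of about 80 µL received 100 nL stock; the first replicate is given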
Mtb hypoxia rep growth – also measured in Mtb hypoxia rep; calls as there; growth inhibition, %; measured here: M. tuberculosis growth (absorbance);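 0% = vehicle and 100% = reference antibiotic; read after six days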
* hit, by the source's call; ? = inconclusive; nt = not tested or not shown.

SMILES	PrP 5UTR inh	BJeLR lethal	Mtb hypoxia rep	Mtb hypoxia rep growth	Sa RN4220 lethal	Autofluor counter	Sa ugtP lethal
COCCN(C(=O)c1csnn1)C(C(=O)NC1CCCCC1)c1sccc1C (configuration not stated)	-45	7	7	0	0.4	23376*	1
COc1ccccc1N1CCN(C(=S)NC(=O)/C=C/c2ccccc2)CC1	-18	-15	2	-3	1.0	6078	12
CC1=Nc2ccccc2/C1=C\c1nc(-c2ccccc2)oc1O	-30	-8	-1	7	1.0	2897	67
CCOC(=O)[C@@H]1[C@H]2COc3ccc(Br)cc3[C@@H]2N2C(=O)N(c3ccc(Cl)cc3)C(=O)[C@]12C	-5	9	nt	nt	nt	4235	nt
CN(c1ccccc1)S(=O)(=O)c1cccc(NC(=O)c2ccncc2)c1	-9	18	5	7	4.3	5095	-7
CCOC(=O)C1CCCN(C(=O)CCNS(=O)(=O)c2ccc3c(c2)CCC(=O)N3)C1 (configuration not stated)	-29	-10	4	0	4.9	9083	5
CC1CC2OC(=O)C(C)C2C(O)[C@]2(C)C(=O)CCC12 (some centres not stated)	nt	nt	-3	5	2.7	nt	-10
CCOc1ccc(NC(=O)CN2C(=O)COc3ccccc32)cc1	-15	-6	6	12	-1.3	3448	14
COc1ccc(N2C(=O)/C(=C\c3ccco3)N=C2SCC(N)=O)cc1Cl	-5	7	-8	-11	1.8	4422	-1
C=CC[N+]1(C)CC[C@]23c4c5ccc(O)c4OC2C(=O)CC[C@@]3(O)C1C5 (some centres not stated)	nt	nt	-4	21	7.7	nt	-2
CN(CC(=O)Nc1cccc(F)c1)C(=O)CCNC(=O)c1ccc(Br)cc1	-14	5	0	-4	3.2	5381	2
Cc1cccc(N(C(=O)CS(=O)CC(=O)Nc2ccc3c(c2)OCO3)C(C)C(=O)NC2CCCC2)c1C (configuration not stated)	-15	-13	15	1	2.3	4363	2
COc1ccc(C2=CCN3CCCCC3C2)c(-c2ccc(OC)c(OC)c2)c1 (configuration not stated)	-36	nt	2	15	4.9	4467	6
Cc1nn(C)cc1C(C)NC(=O)c1cc(COc2ccc(F)c(F)c2)on1 (configuration not stated)	-27	6	-1	4	1.0	5313	-4
CC(C)CCN1CCN(Cc2ccc(Sc3nncn3C)o2)CC1CCO (configuration not stated)	-4	-6	2	15	0.4	2517	8
OCCC#Cc1ccc(CN2CCN(C3CCCCC3)C(CCO)C2)cc1 (configuration not stated)	2	-1	-1	7	-0.8	2061	6
O=C(NCc1ccccc1Cl)c1ccc(S(=O)(=O)Nc2cccc(C(F)(F)F)c2)cc1	-13	-19	3	13	-9.6	2047	-6
O=C(COc1ccc(F)cc1)NCCCn1ccnc1	-39	-7	6	-2	2.0	3850	7
COc1c(Cl)cnn(-c2cccc(C)c2)c1=O	-12	-5	7	15	4.0	4240	6
Cc1csc(NC(=O)Cc2nn(C)c(=O)c3ccccc23)n1	-32	7	nt	nt	-4.0	2807	-3
NS(=O)(=O)c1ccc(O)c(NC(=O)c2ccc([N+](=O)[O-])o2)c1	-29	0	11	-3	3.7	4475	-2
Cn1cc(Cl)c(C(=O)NN=Cc2ccc3c4c(cccc24)CC3)n1	nt	nt	1	9	-3.0	nt	-3
O=C1CCC(C(=O)N2CCCC2)CN1Cc1cccc(C(F)(F)F)c1 (configuration not stated)	-2	4	3	0	1.5	5431	1
Cc1ccc(-c2nc3c(c(SCC(=O)N4CCOCC4)n2)COC(C)(C)C3)cc1	-7	5	5	5	3.5	5008	10
CCOC(=O)COn1c(=O)c[n+]([O-])c2ccccc21	5	8	4	10	1.5	4234	2
Cc1ccc(C=NN2CCN(c3ccccn3)CC2)o1	nt	nt	-14	-12	1.3	nt	-1
CCC1CCCCN1C(=O)c1ccc(OC2CCN(C(=O)COC)CC2)cc1 (configuration not stated)	-16	-5	nt	nt	nt	6415	nt
Cc1c(C(=O)NCC2CCCO2)oc2ccc(S(=O)(=O)N3CCCC3)cc12 (configuration not stated)	-2	-2	3	7	2.2	8894	-1
Nc1cc(Oc2ccc(F)cc2F)cc([N+](=O)[O-])c1	-5	-10	15	3	5.2	2502	-1
Cn1c(NCc2cc(Br)ccc2O)nc2ccccc21	-28	1	4	8	-13	8838	-15
Cc1ccsc1C(=O)OCC(=O)NCc1ccc2c(c1)OCO2	-12	2	8	-2	-0.8	2412	7
CC(C)C(C)NC(=O)Cn1cnc2c(oc3ccccc32)c1=O (configuration not stated)	-7	-6	16	2	3.7	5910	5
CCc1nnc(NC(=O)CSc2nnc(C3CC3)n2C)s1	-6	2	-8	-3	-2.6	5415	2
CCC(C)c1ccccc1N1CC(C(=O)N2CCN(C(=O)c3ccco3)CC2)CC1=O (configuration not stated)	2	nt	-4	-2	1.6	3005	1
CCOC(=O)c1cnc(-n2[nH]c(C)cc2=O)[nH]c1=O	-11	0	-4	11	17	4579	-6
CCN(CC)C(=O)CSc1nc(N)c(C(=O)Nc2ccc(OC)cc2)s1	-6	-9	17	-2	4.6	2486	2
Cc1cccc2nc(-c3cccc(NC(=O)Cc4ccccc4)c3)cn12	-12	9	7	3	8.3	7627	-8
COc1ccc(OC)c(CN2C(=O)c3ccccc3C2C(=O)NCC2CCCO2)c1 (configuration not stated)	-14	4	-2	3	2.2	4788	6
Cc1cc(C)c(C)c(OCCCn2ccnc2)c1	-25	-7	-3	-1	7.0	3670	0
Cc1ccccc1C(=O)N1CCN(c2ccc(NC(=O)Cc3ccccc3)cc2)CC1	1	-7	3	0	3.3	5806	6
Fc1ccc(C2=CCN(C(c3cccs3)c3nnnn3CCc3ccccc3)CC2)cc1 (configuration not stated)	-17	4	nt	nt	2.1	3796	2
CCc1nnc(NS(=O)(=O)c2ccc(NC(=O)c3ccccc3OC)cc2)s1	-9	-2	4	-6	2.4	4429	2
CN(Cc1cc(=O)n2ccsc2n1)c1ccccc1	-30	-2	-7	2	-1.6	2124	-2
CCn1nc(C(=O)NCCc2ccc(S(N)(=O)=O)cc2)c2ccccc2c1=O	-13	-6	9	2	4.7	?	12
N#C/C(=C\c1ccccc1O)C(=O)Nc1ccccn1	-9	-7	-3	-5	3.2	3133	11
COCCNC(=O)CSc1nc2scc(-c3ccccc3)c2c(=O)[nH]1	0	-5	-1	3	3.9	nt	8
O=C(Nc1ccc(Cl)c([N+](=O)[O-])c1)c1cnccn1	-70	-11	21	4	2.5	1951	-1
Cc1ccc(S(=O)(=O)/N=C(/Nc2cccc3ccccc23)c2ccc(F)cc2)cc1	-19	0	3	-4	2.1	5591	1
CCc1ccc(S(=O)(=O)Nc2cc(SCC(=O)O)c(O)c3ccccc23)cc1	-8	-1	7	13	8.4	3330	-1
O=Cc1c(N2CCCCC2)nc2ccccn2c1=O	-15	-2	nt	nt	-2.4	4588	-4

An excerpt of these results, with bars between the fields:
mol | PrP 5UTR inh | BJeLR lethal | Mtb hypoxia rep | Mtb hypoxia rep growth | Sa RN4220 lethal | Autofluor counter | Sa ugtP lethal
CCOC(=O)COn1c(=O)c[n+]([O-])c2ccccc21 | 5 | 8 | 4 | 10 | 1.5 | 4234 | 2
Cc1ccccc1C(=O)N1CCN(c2ccc(NC(=O)Cc3ccccc3)cc2)CC1 | 1 | -7 | 3 | 0 | 3.3 | 5806 | 6
Cc1ccsc1C(=O)OCC(=O)NCc1ccc2c(c1)OCO2 | -12 | 2 | 8 | -2 | -0.8 | 2412 | 7
Cc1ccc(S(=O)(=O)/N=C(/Nc2cccc3ccccc23)c2ccc(F)cc2)cc1 | -19 | 0 | 3 | -4 | 2.1 | 5591 | 1

Next part:
SMILES	PrP 5UTR inh	BJeLR lethal	Mtb hypoxia rep	Mtb hypoxia rep growth	Sa RN4220 lethal	Autofluor counter	Sa ugtP lethal
COc1cc(OC)c(C(=O)NCCCn2ccnc2)cc1OC	-16	-3	18	-2	1.5	3954	2
C/C(=N\NC(=O)C1COc2ccccc2O1)c1cccs1 (configuration not stated)	-38	-10	nt	nt	nt	9356	nt
COCCNC(=O)CSc1nnc2c(Cl)cc(Cl)cn12	-10	-4	nt	nt	2.6	2946	1
Cc1cc(/C=C2\NC(=O)NC2=O)c(C)n1-c1ccc(N2CCOCC2)cc1	4	-14	3	10	6.2	3734	-17
O=C(C1CCN(S(=O)(=O)N2CCOCC2)CC1)N1CCN(c2ccccc2)CC1	-12	9	1	8	4.6	2520	2
O=C(COC(=O)c1ccc2c(c1)OCO2)NCc1ccc2c(c1)OCO2	-12	0	0	-6	3.4	?	7
C=CCn1c(N)c(C(=O)OCCC)c2nc3ccccc3nc21	0	-4	2	9	0.9	3167	-6
CC(C)C(=O)NCCn1ccc2ccccc21	-18	0	nt	nt	4.8	2276	-1
CC1(C)C(=O)OC(C(=O)c2ccccc2)C(C)(C)C1=O (configuration not stated)	-23	-3	5	1	0.7	21463*	4
COc1cc2cc(C)c(SCC(=O)N3CCN(C(=O)c4ccco4)CC3)nc2cc1OC	10	1	4	-2	1.7	2942	0
CSc1nccn1C(=O)c1ccccc1[N+](=O)[O-]	-13	0	6	1	0.5	2886	12
CCN1C(=O)CS/C1=N\S(=O)(=O)c1ccc(C)cc1	-4	-6	nt	nt	nt	3418	nt
C/C(=N\NC(=O)C1CC1(c1ccccc1)c1ccccc1)c1cccc([N+](=O)[O-])c1 (configuration not stated)	-3	24	nt	nt	nt	1971	nt
CC(C)C[C@@H](CN(N=O)[C@@H](Cc1ccccc1)CN(C)N=O)N(CCc1ccccc1)N=O	-25	-4	nt	nt	nt	3902	nt
COc1ccc(C2=NS(=O)(=O)N(C)C(C(=O)N3CCCCC3)=C2)cc1	-7	-2	2	3	5.0	5196	-2
COCC(C)NC(=O)NC(=O)c1ccc(Cl)cc1 (configuration not stated)	-34	1	3	3	-2.7	7369	-1
CC1(C)CC(=O)C=C(Nc2ccccc2NC(=O)c2cnccn2)C1	-8	-1	-2	5	-1.0	2339	-1
CN1CCN(CCCNC(=O)Cn2nc(-c3ccccc3)ccc2=O)CC1	-50	-1	15	4	1.5	6909	4
COc1ccccc1CNC(=O)CCC(=O)N1CCOc2ccc(C)cc21	-10	4	8	7	-10	4511	1
COCc1cc(C)nc(OCC(=O)NN=Cc2ccco2)c1C#N	nt	nt	7	1	1.9	nt	5
C=C(C)Cn1c(SCC#N)nc2ccccc2c1=O	2	-1	nt	nt	3.9	2379	-6
COc1ccc(CCc2nnc(CCC(=O)NCC3CCCO3)o2)cc1 (configuration not stated)	5	1	-10	-1	-2.0	5641	-3
Cc1ccc2c(c1)N(CCC(=O)NC1CCCCC1)C(=O)CO2	-3	-8	18	7	3.5	5062	8
CCOC(=O)c1cccc(COC(=O)c2cccc(-c3nnc(-c4ccccc4)o3)c2)c1	-49	4	9	2	6.4	2393	-13
COc1ccc(OC)c(C2=NS(=O)(=O)N(C)C(C(=O)Nc3ccc(C(C)=O)cc3)=C2)c1	-1	-7	-6	-5	5.9	5586	9
CC(/C=C/c1ccccc1)=N\NC(=O)CNC(=O)c1ccccc1Cl	-8	-8	nt	nt	nt	2554	nt
CC(=O)c1ccc(NC(=S)N2CCC(O)CC2)cc1	15	-12	5	3	3.2	2375	-1
COC(=O)c1ccc(CSc2nnc(CNC(=O)c3cccs3)o2)o1	-4	5	-4	10	-8.6	4478	1
Cc1ccc(C(=O)NNC(=O)C2CCN(S(=O)(=O)c3ccc(Cl)cc3)CC2)cc1	-80	3	9	6	8.1	6988	-2
Cc1ccc(C)c(NNC(=O)C(=O)NNc2cc(C)ccc2C)c1	nt	3	-4	-2	3.8	4249	5
Oc1cccc(/C=N\Nc2nncc(-c3ccccc3)n2)c1	-55	8	nt	nt	nt	4656	nt
CCOc1ccccc1CN1CCN(Cc2cc3ccccc3[nH]2)CC1CCO (configuration not stated)	-25	-6	9	2	2.5	2247	-2
N#CC1=C(N)N(c2ccccc2)C(c2ccccc2)C1(C#N)C#N (configuration not stated)	-5	2	-6	9	3.5	2347	-12
CCCNC(=O)NC1CCCCCCC1	-28	-10	nt	nt	0.4	2182	8
CCOC(=O)c1cnn(-c2ccccn2)c1N	-89	18	nt	nt	4.0	2506	-3
Cc1cc(N2CCN(C)CC2)nc2ccc(NC(=S)NCCCN3CCN(C)CC3)cc12	-16	3	13	8	6.2	4715	8
NC(=NOC(=O)c1ccc([N+](=O)[O-])cc1)c1ccc(Br)cc1	nt	nt	-11	6	-4.1	nt	-2

Assay outcomes: PubChem, several laboratories

The order is random, and some 4% of all compounds hit somewhere here.
